HSD17B inhib: inhibitors of human HSD17B10 dehydrogenase; Q99714; recombinant HSD17B10, NADH fluorescence kinetic; many of its hits are not listed in these tables; Potency, µM (series often up to 57.1 µM), for inactives: at the highest dose activity change, negative = inhibition, hits mostly inhibitors; 7.6% of 75,000 active; AID 893; active = well fitted inhibition curve with a large enough effect; inconclusive = small, poorly fitted or top-dose-only effect; inactive = no such curve, though single readings can be large or run the other way;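 also: the protocol describes HADH2 (HSD17B10) and not the HSD17B4 of the title; nearly all actives have a fitted effect of over 70% in size; most hits overshoot -100% by far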
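20 nM HADH2, pH 9.0 Tris/Tween; cpd preinc 15 min RT; start w/ 1 mM NAD+ + 90 uM b-hydroxybutyryl-CoA; kinetic fluor ex360/em450 q30s x 4 min; delta last-first.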
* = called active by the depositor; u = inconclusive; [ ] = remark or other dose. % is scaled to controls: 0 for no effect and ±100 for the full control effect; potency is read from the fitted curve at half-maximal effect. Only part of the results is shown; the hit share may differ from the screen's.

Structure	HSD17B inhib
CC(C)[C@H](NC(=O)NCCc1ccc(F)cc1)C(=O)O	11%
CCOc1ccc(NC(=O)C2CC(=O)N(C(C)C)C2)cc1 (stereo unspecified)	-1%
O=C1CC(C(=O)Nc2ccccc2)C2(CCCC2)O1 (stereo unspecified)	2%
CC(C)(C)C(=O)OCOC(=O)[C@@H]1N2C(=O)[C@@H](NC(=O)[C@H](N)c3ccccc3)[C@H]2SC1(C)C	-4%[25.6 µM]
COCCn1c(=O)c(-c2ccccc2)nc2cnc(Oc3cccc(Cl)c3)nc21	u
CCOc1ccc(CCNC(=O)C2CCN(c3nn4c(=O)cc(C)nc4s3)CC2)cc1	-4%
CCOC(=O)CSC1=C(C#N)C(c2ccccc2OCC)C(C#N)C(=O)N1 (stereo unspecified)	-19%
COc1ccc2c(-c3ccccc3)cc3nnnn3c2c1	-29%
O=C(C1Cc2ccccc2CN1S(=O)(=O)c1ccc(F)cc1)N1CCCCCC1 (stereo unspecified)	0%
C#CCCCO/N=C1/C[C@@H](O)[C@@H](O)[C@@H]2[C@@H]3C(=O)N(CC)C(=O)[C@H]3CC[C@H]12	2%[11.4 µM]
O=C(N1CCN(CCO)CC1)N1c2ccccc2C=Cc2ccccc21	13%
CC(=O)Nc1ccc(S(=O)(=O)N(C)CC(=O)Nc2ccccc2N2CCOCC2)cc1	9%
Cc1ccc(-n2nc(C(=O)NCc3ccco3)c3c4ccccc4n(C)c3c2=O)cc1	10µM*
CSc1nnc(Cn2c(=O)sc3ccccc32)n1-c1ccccc1	-20%
CC1=C(C(N)=O)C(c2ccccc2)n2nc(-c3cccc(C)c3)nc2N1 (stereo unspecified)	-3%
CN1C(=S)SC(N(O)C(=O)NC2CCCCC2)C1(C)C (stereo unspecified)	-5%
CC(C)CC(=O)N1CCN(C(=O)CCC2CCCC2)CC1	6%
CN(C)CCNc1nc2c(c(=O)[nH]c(=O)n2C)n1CCCc1ccccc1	3%
C=CCn1c(Cc2cccs2)nnc1SCC(=O)c1cccc(Br)c1	u
COc1cc(S(=O)(=O)NC2CCCCC2C)ccc1Cl (stereo unspecified)	2%
CN(Cc1nc2ccccc2n1C)S(=O)(=O)c1ccc(F)cc1	-3%
CC1CCCC(C)N1S(=O)(=O)c1ccc(NC(=O)c2ccccc2C(=O)N2CCOCC2)cc1 (stereo unspecified)	4%
c1ccc(-n2nnnc2-n2cnc3ccccc32)cc1	0%
CCNc1ccc(C(=O)OCC)cc1NC(=O)c1cccc(S(=O)(=O)N2CCOCC2)c1	9%

By substructure: the compounds so far with fluorine.
Structure	HSD17B inhib
CC(C)[C@H](NC(=O)NCCc1ccc(F)cc1)C(=O)O	11%
O=C(C1Cc2ccccc2CN1S(=O)(=O)c1ccc(F)cc1)N1CCCCCC1 (stereo unspecified)	0%
CN(Cc1nc2ccccc2n1C)S(=O)(=O)c1ccc(F)cc1	-3%

Next part
Structure	HSD17B inhib
CCOc1ncccc1C(=O)OCC(=O)Nc1cc(C(=O)OC)ccc1C(=O)OC	17%
COc1ccc([C@@H](Nc2ncccn2)c2cc3c(cc2O)OCO3)cc1	-16%[11.4 µM]
c1ccc(-c2nc(N3CCCCCC3)c3ccccc3n2)nc1	6%
COC(=O)c1ccccc1NC1c2ccccc2C(=O)N1c1cccnc1 (stereo unspecified)	u
N#Cc1cccc(-c2nc(NCc3ccccc3)c3ccccc3n2)c1	u
Cc1cc(OCC(=O)NCCN2CCOCC2)cc(C)c1Br	1%
COc1cccc(NC(=O)c2ccc3c(c2)N(CC(=O)N2CCCCC2)C(=O)C(C)(C)O3)c1	-11%
CCCCn1c(SCc2c(C)noc2C)nc2cc(S(N)(=O)=O)ccc21	-9%

Brought forward from above: 2 compounds, followed by the next part.
Structure	HSD17B inhib
COc1cccc(NC(=O)c2ccc3c(c2)N(CC(=O)N2CCCCC2)C(=O)C(C)(C)O3)c1	-11%
CCCCn1c(SCc2c(C)noc2C)nc2cc(S(N)(=O)=O)ccc21	-9%
COc1ccccc1N(C(C)=O)C1SC(=O)N(c2ccccc2)C1=O (stereo unspecified)	-6%
CCC/C=C(\CCC)C(NS(=O)(=O)c1ccccc1)c1ccc(C(F)(F)F)cc1 (stereo unspecified)	-17%
CCC(C)N(C(=O)COC(=O)c1cn(CC)c2nc(C)ccc2c1=O)C1CCS(=O)(=O)C1 (stereo unspecified)	6%
CCOC(=O)N1CCN(S(=O)(=O)c2ccc(OC)c(Cl)c2)CC1	2%
O=C1CN(c2nc3ccccc3n3cnnc23)CC(=O)N1CCc1ccccc1	0%
CS(=O)(=O)N1CCC[C@@]2(CCN(Cc3ccc(C#N)cc3)C2)C1	4%
COc1cccc(-c2ccc3ncnc(Nc4ccccc4)c3c2)c1	-8%
COc1cc(N=Cc2c(O)[nH]c3ccccc23)cc(OC)c1OC	-15%
CC(C)Cn1c(Br)nc2c1c(=O)n(CCC#N)c(=O)n2C	5%
CN1CCN(c2ncncc2-c2ccc(C(=O)N(C)C)cc2)CC1	0%
CN(Cc1ccco1)c1ncnc2ccc(-c3ccc4c(c3)OCO4)cc12	u
CCOC(=O)c1sc(N(Cc2ccccc2)C(=O)CN2C(=O)CN(C)C2=O)nc1C	-1%
c1cc(C(c2nnnn2C2CCCC2)N2CCOCC2)ccn1 (stereo unspecified)	4%
O=C(O)CSc1c2c(nc3cc(C(=O)N4CCOCC4)ccc13)CCCC2	u
CCCc1cc(Nc2cccc(OC)c2)n2ncnc2n1	5%
O=C(CN(Cc1ccccc1)S(=O)(=O)c1ccccc1)NC1CC1	7%
COc1cc(CNCCO)ccc1OCC(=O)Nc1ccc(Br)cc1	6%
N#Cc1ccccc1Cn1c(-c2cscn2)nc2ccccc21	-12%
CCC(=O)Nc1ccc(C(=O)n2ccc(C)n2)cc1	-4%
COCCCn1c(SCC(=O)OC2CCCCC2)nnc1-c1ccco1	-13%
COc1cc(C)c(Cl)cc1S(=O)(=O)N(C)C	2%
NCCNCC1CCNCC1	2%[11.4 µM]
COC(=O)c1[nH]c(C)c(/C(O)=C2\C(=O)C(=O)N(CCN(C)C)C2c2cc(OC)ccc2OC)c1C (stereo unspecified)	-3%
COc1ccc(CCNC(=O)c2nnn(CC(=O)Nc3ccccc3)c2N)cc1OC	-4%
CC1CN(S(=O)(=O)c2cccc(C(=O)OCC(=O)Nc3ccc4c(c3)OCO4)c2)CC(C)O1 (stereo unspecified)	1%
CCn1c(Cc2cccs2)nnc1SCC(=O)Nc1ccc(OC)c(OC)c1	0%
CC1(C)CCCN(C(=O)c2coc(=O)c(Br)c2)C1	32µM*
C/C(CCc1oc2ccccc2c1-c1ccc(C)o1)=N/O	-28%
N#C/C(C(=O)c1ccccc1)=C1/CCCCCN1	-24%
CCOC(=O)Cc1nnn(CC(=O)OCC)n1	u
CCCCOCCCNC(=O)C1CCCCC1	9%
CC(=O)Oc1ccc(NC(=O)C2CCCCC2)c(C(=O)O)c1	u
CC(C(=O)N1CCc2ccccc21)N1CCc2ccccc2C1 (stereo unspecified)	2%
CCCC=O	2%
N#Cc1cn(CC(=O)NCC2CCCO2)c2ccccc12 (stereo unspecified)	6%
Cc1cc2cc(CNC(=O)c3cc4ccccc4o3)ccc2n1C	-6%
Cc1ccc(C(=O)CCNc2ccccc2)o1	-4%
COc1cc(C2N(c3ccc(Cl)c(Cl)c3)C(=O)C3CCCN32)cc(OC)c1OC (stereo unspecified)	-3%
Cc1nn(-c2ccccc2)c(CC(C)(C)C(=O)O)c1C(=O)O	4%
COc1cc2c(C(=O)N3CCCc4ccccc43)cn(C)c(=O)c2cc1OC	5%

Reformatted as labelled records: entries from further up
Cc1ccc(C(=O)CCNc2ccccc2)o1
  HSD17B inhib: -4%

CCCC=O
  HSD17B inhib: 2%

COc1cc(C2N(c3ccc(Cl)c(Cl)c3)C(=O)C3CCCN32)cc(OC)c1OC (stereo unspecified)
  HSD17B inhib: -3%

Cc1cc2cc(CNC(=O)c3cc4ccccc4o3)ccc2n1C
  HSD17B inhib: -6%

Further structures follow.
Structure	HSD17B inhib
CCOC(=O)c1c(NC(=O)CCC(=O)NCc2ccco2)sc2c1CCCC2	77%[activator]
COc1ccc(S(=O)(=O)N(CC(=O)NCc2ccco2)C2CCCCC2)cc1OC	3%
OCCN1CCN(c2ncnc3c2sc2nc(N4CCOCC4)c4c(c23)CCC4)CC1	u
CCOC(=O)Cn1c(=O)oc2cc(S(=O)(=O)Nc3c(C)cc(C)cc3C)ccc21	-4%
O=C(CCN1CCN(CCC(=O)c2ccccc2)CC1)c1ccccc1	-9%
Cc1nc2cc(-c3ccc(F)cc3)nn2c(N2CCOCC2)c1C	3%
CN(C)C(=O)[C@@H]1C[C@H]1[C@@H](NC(=O)OCc1ccccc1)c1ccccc1	-7%
CN(C)S(=O)(=O)Nc1ccccc1C(N)=O	32µM*
Cc1ccc(Nc2nc(N)nc(CSc3nnnn3-c3ccccc3)n2)cc1	-12%
O=C(O)[C@H]1O[C@H]1C(=O)O	-1%[11.4 µM]
Cn1c(=O)c2c(nc(Sc3n[nH]c(N)n3)n2Cc2ccccc2Cl)n(C)c1=O	5%
CC(C)(C)NC(=O)CC(CC(=O)O)c1ccccc1 (stereo unspecified)	8%
C=CCSC1=C(C#N)C(c2ccccc2Cl)CC(=O)N1 (stereo unspecified)	-2%
O=C(NCc1csc(-c2ccccc2)n1)c1ccco1	5%
Cc1noc(C)c1CSc1nnc(-c2ccncc2)n1-c1cccc(Cl)c1C	-7%
Cc1cc(=O)n2nc(N3CCCC(C(=O)NCCC4=CCCCC4)C3)sc2n1 (stereo unspecified)	-2%
Cn1ncc(C#N)c1/N=C/N(Cc1ccccc1)Cc1ccccc1	-17%
Cc1c(C(=O)O)oc2c1ccc1ccccc12	-21%
O=C(Nc1ccccc1)N1C(=O)C2(OCCO2)c2ccccc21	3%
O=C(Nc1nnc(C2CC2)s1)c1cccc(S(=O)(=O)N2CCc3ccccc32)c1	-1%
Brc1ccc(CSc2nnc(-c3ccccn3)n2Cc2ccco2)cc1	8%
CC(=O)C1=C(C)NC(=O)NC1c1ccccc1 (stereo unspecified)	-3%
CCOc1ccc(N(CC(=O)NCc2ccco2)S(=O)(=O)c2ccc(OC)c(OC)c2)cc1	u
COc1ccc(Cl)cc1CSc1n[nH]c(C)n1	-3%
c1ccc(-c2nn3c(-c4ccncc4)nnc3s2)nc1	-17%
CCOc1ccccc1NC(=O)C1CCCN(S(=O)(=O)c2cccc3cccnc23)C1 (stereo unspecified)	-4%
O=C(CN1C(=O)c2ccccc2S1(=O)=O)N1CCN(c2cccc(Cl)c2)CC1	6%
CN(C)c1ccc(N=NS(=O)(=O)O)cc1	-9%
CCOC(=O)N1CCN(C(=O)C(NS(=O)(=O)c2cccc3nsnc23)c2ccccc2)CC1 (stereo unspecified)	2%
CCN(CC)C(=O)CSc1nc(O)cc(=O)n1-c1ccccc1OC	5%
CCCn1c(=O)c2ccccc2n2c(SCC(=O)/C(C#N)=C(\C)N)nnc12	4%
COc1ccc(CCNC(=O)c2sc(=S)n(C)c2N)cc1	u
CC(=O)OC(C(=O)NCc1ccco1)c1cccnc1 (stereo unspecified)	0%
Cc1cc(CNC(=O)Cc2c(F)cccc2Cl)nn1C	13%
COC(=O)c1ccccc1OC(=O)c1ccc(Br)o1	2%
COC(=O)c1c(C)nc(C)c2c(=O)oc3ccccc3c12	-7%
CCCNC(=O)NC(=O)CSc1ncc(C(F)(F)F)cc1Cl	5%
CCOc1ncccc1C(=O)OCC(=O)N1CCN(S(=O)(=O)c2ccccc2)CC1	8%
COc1ccc(NC(=O)c2c(-c3ccccc3)noc2C)c(OC)c1	-10%
Cn1c(=O)c2c(nc(CN3CCOCC3)n2CCN2CCOCC2)n(C)c1=O	10%
COc1cc(O)c(C(=O)/C=C/c2ccc(OC)c(O)c2)c(OC)c1	0%
CC(C)CCNC(=O)NC(=O)CN1C(=O)NC2(CCCCC2)C1=O	-2%
CCn1c2ccccc2c2cc(NC(=O)CCCN3C(=O)CCC3=O)ccc21	-26%
Cc1cc(C)n(-c2nc3ccccc3nc2Nc2ccc(CC(=O)O)cc2)n1	-2%
CC(C)OP(=O)(c1ccc(N(C)C)cc1)C(O)c1ccccc1F (stereo unspecified)	-4%
CCN(CC)c1nc(N)c2c(N)n(-c3ccccc3C)c(=S)c(C#N)c2c1C#N	u
CC(=O)N1CCC2(CCCN(Cc3cc(C(F)(F)F)cc(C(F)(F)F)c3)C2)CC1	-3%
CCOC(=O)CCC(=O)N1CCOCCN(C(=O)CCC(=O)OCC)CCOCC1	0%
O=C(CC1CCCCC1)NCc1cn2ccsc2n1	-5%
Cc1ccc2cc(CN(Cc3ccco3)C(=O)c3ccccc3)c(=O)[nH]c2c1C	u
CCOC(=O)CNS(=O)(=O)CCN1C(=O)c2ccccc2C1=O	-5%
